Mtb growth – Mycobacterium tuberculosis H37Rv growth inhibition, putative kinase inhibitor library, confirmatory dose response (AID 2842); M. tuberculosis H37Rv growth inhibition; higher % means a stronger effect; some inactives read as strong as hits; inhibition, % at 10 µg/mL; hits with a dose series show IC90 in µg/mL; 24,000 tested, 5.2% active;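 active = confirmed in a dose series; inconclusive = mostly over 85% at the one dose but not retested; inactive = below 85% or not confirmed; about a fifth of its hits are not listed in these tables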;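 also: bacteria incubated one week before Alamar blue readout; 0% = bacteria only wells and 100% = bacteria with high antibiotic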
The depositor's hits bear a star; ? = inconclusive. Only part of the results is shown; rates above refer to the full screens.

SMILES	Mtb growth
Cc1cc(NC(=O)c2ccc(F)c(F)c2)nc2c1c(=O)oc1ccccc12	-5%
Cc1c(C)n2c(SCC(=O)Nc3cccc4ccccc34)nnc2[nH]c1=O	-8%
COc1ccc(NC(=O)Cn2cc(C(=O)c3ccc(F)cc3)c(=O)c3ccccc32)c(OC)c1	-11%
COC(=O)c1cc(N/C=C(\C#N)c2nc(-c3ccc(OC)cc3)cs2)cc(C(=O)OC)c1	-1%
CCOc1ccc2c(c1)c(=O)c(C(=O)c1ccccc1)cn2Cc1cccc(F)c1	25%
CCc1cccc(OCC(O)Cn2c(N3CCC(C)CC3)nc3c2c(=O)[nH]c(=O)n3C)c1 (stereo unspecified)	11%
CCS(=O)(=O)c1cccc(C(=O)Nc2sc3c(c2C(N)=O)CCCC3)c1	-6%
O=C(CSc1ccc(-c2ccc(-n3ccnc3)cc2)nn1)NCc1ccco1	-4%
COc1ccc(Cl)cc1C(=O)NCCc1cc2c(OC)ccc(OC)c2[nH]c1=O	2%
O=C(O)c1ccccc1SC1CC(=O)N(c2ccc(N3CCCCC3)cc2)C1=O (stereo unspecified)	-8%
COc1ccc(C2C(C#N)=C(N)Oc3c2oc(CO)cc3=O)cc1 (stereo unspecified)	-13%
COc1ccc(OC)c(N2C(=O)NC(=O)/C(=C\c3ccco3)C2=O)c1	-14%
O=C(Cn1cnc2c(cnn2-c2ccc(Cl)cc2)c1=O)Nc1cccc(C(F)(F)F)c1	5%
Cc1ccc(S(=O)(=O)Nc2ccccc2C(=O)Nc2nc(-c3ccccc3)cs2)cc1	33%
O=C(CSc1cn(Cc2ccccc2)c2ccccc12)N1CCOCC1	-6%
C=CCn1c(SCC(=O)Nc2cccc(O)c2)nc2sc(C)cc2c1=O	15%
CCCC(=O)Nc1c(C(=O)OCC)[nH]c2ccccc12	2%
CCOC(=O)c1nn(-c2ccc(C)cc2)c(=O)c2c(NC(=O)c3cccc4ccccc34)scc12	-1%
Cc1ccc(N2C(=O)C3N=NN(CC(=O)Nc4cccc(C)c4C)C3C2=O)cc1C (stereo unspecified)	1%
Cc1ccc(C)c(NC(=O)CSc2nc(N)c(NC(=O)c3ccc(F)c(F)c3)c(=O)[nH]2)c1	-4%
O=C(NN1C(=O)CSC1=S)c1c(F)cccc1F	-19%
COc1cccc2cc(-c3nnc(Nc4ccc(C)cc4)s3)c(=O)oc12	-2%
COc1ccc(CC(=O)Nc2c3c(nn2-c2ccc(C)cc2)CSC3)cc1OC	2%
CCCn1c(=NC(=O)c2ccc(Cl)s2)sc2cc(S(C)(=O)=O)ccc21	1%
CC(C)NC(=S)NNc1nc2c(-c3ccccc3)nnn2c2ccccc12	-21%
CC(NS(=O)(=O)c1cc2c3c(c1)CCN3C(=O)CC2)c1ccccc1 (stereo unspecified)	1%
Cc1ccc(Nc2nnc(-c3cc4cc(Cl)cc(Cl)c4oc3=O)s2)cc1	-7%
CCOC(=O)c1nn(-c2ccccc2)c(=O)c2c(NC(=O)Cc3ccc([N+](=O)[O-])cc3)scc12	-2%
CCOC(=O)c1ccc(NC(=O)CSc2nc3c([nH]c4ccccc43)c(=O)n2-c2ccccc2C)cc1	62%
COc1ccc(NC(=O)COC(=O)CCCC2=NS(=O)(=O)c3ccccc3N2)cc1	0%
COc1cc(NC(=O)c2c[nH]c(=O)n(-c3ccc(F)cc3)c2=O)cc(OC)c1	4%
Cc1n[nH]c(=O)nc1Nc1ccc(C(=O)OC(C)C)cc1	2%
COc1ccc(SCC(=O)Nc2ccc3c(c2)C(=O)NC3=O)cc1	-6%
CCC(Sc1nncn1C)C(=O)Nc1nnc(C(C)C)s1 (stereo unspecified)	2%
O=C(NCc1cccnc1)C(=O)Nc1c2c(nn1-c1ccc(F)cc1)CSC2	-4%
COc1ccc(OC)c2sc(N3CCOCC3)nc12	-1%
NC(=O)c1nc(-c2ccc(Cl)cc2)nc2c1[nH]c(=O)n2-c1ccc(Cl)cc1	1%
CCOC(=O)c1sc(NC(=O)c2ccccc2OC)nc1C	-1%
CCCCC(=O)NCCc1cc2cc(C)c(C)cc2[nH]c1=O	0%
CCN(c1ccccc1)S(=O)(=O)c1ccc(C(=O)Nc2nc(-c3ccc(C#N)cc3)cs2)cc1	-6%
CCCC(=O)Nc1nc2ccc(S(N)(=O)=O)cc2s1	-12%
Cc1ccc(NC(=O)CSC2=C(C#N)C(c3cccs3)CC(=O)N2)cc1Cl (stereo unspecified)	84%
CCOc1ccc2nc(N3CCN(c4nc5ccccc5s4)CC3)sc2c1	0%
COc1cccc2c(=O)n(CC(=O)Nc3ccccc3C)ccc12	1%
O=C(CSc1ccc(-c2ccc3c(c2)OCO3)nn1)NCc1ccc2c(c1)OCO2	-3%
Cc1cc2cc(CCN3C(=O)c4ccccc4C3=O)c(=O)[nH]c2cc1C	6%
CCOC(=O)c1nn(-c2ccc(OC(F)(F)F)cc2)c(=O)c2c(NC(=O)c3ccco3)scc12	0%
COc1ccc(NC(=O)C2=C(C)NC(=O)NC2c2ccc(Br)cc2)cc1 (stereo unspecified)	10%
O=S1(=O)CCC(NS(=O)(=O)c2ccc(Cl)c(Cl)c2)C1 (stereo unspecified)	-2%
OCCN1CCN(C(c2ccco2)c2sc3ncnn3c2O)CC1 (stereo unspecified)	1%
Cc1ccccc1-n1nc2c(c1NC(=O)CCc1ccccc1)CSC2	2%
CCOC(=O)c1nn(-c2ccc(F)cc2)c(=O)c2c(NC(=O)c3ccc(C)cc3)scc12	6%
O=C(O)CNS(=O)(=O)c1ccc2c(c1)Cc1cc(S(=O)(=O)NCC(=O)O)ccc1-2	-18%
CCOC(=O)COc1ccc2cc(-c3ccc(OC)c(OC)c3)c(=O)oc2c1	2.2µg/mL*
COc1ccc(N2CC(C(=O)Nc3c(C(=O)Nc4ccc5c(c4)OCCO5)oc4ccccc34)CC2=O)cc1 (stereo unspecified)	70%
COc1ccccc1CNC(=O)c1cc2c(=O)n3ccccc3nc2n1C	-4%
O=C(Nc1cc2c3c(c1)CCC(=O)N3CCC2)c1ccco1	-2%
Cc1ccc(C)c2[nH]c(=O)c(CCNC(=O)c3ccc4ccccc4c3)cc12	-1%
COc1ccc(C(=O)Nc2sc3c(c2C#N)CCCC3)cc1OC	5%
O=C(Nc1nc(-c2ccc(F)cc2)cs1)c1ccc([N+](=O)[O-])s1	-9%
Further compounds follow:
SMILES	Mtb growth
C=CCn1c2c(c(=O)[nH]c1=O)C(c1ccc(Br)cc1)C1=C(COC1=O)N2 (stereo unspecified)	4%
COC(=O)c1ccccc1NC(=O)c1cnc2sccn2c1=O	-8%
Cn1c(=O)[nH]c(=O)c2c1nc(N1CCCCCC1)n2CCCSc1nnnn1-c1ccccc1	15%
Cc1nnc(SCc2ccccc2Cl)n(N)c1=O	-2%
CCOC(=O)c1nn(-c2ccc(Cl)cc2)c(=O)c2c(NC(=O)c3ccc(OC)c(OC)c3)scc12	12%
CCOc1ccc(-c2nnc3c4cc5c(cc4n(Cc4cccc(F)c4)cc2-3)OCCO5)cc1	36%
CCC(=O)Nc1nc(-c2ccc3c(c2)OCO3)cs1	32%
Cc1cccc(NC(=O)/C(C#N)=C/c2ccc(F)cc2)n1	-5%
CCn1c(N(C)C)nc2c1c(=O)[nH]c(=O)n2C	-2%
Cc1ccc(Cn2c(N3CCN(Cc4ccc(F)cc4)CC3)nc3c2c(=O)[nH]c(=O)n3C)cc1	15%
O=C(Nc1c2c(nn1-c1ccc(F)cc1)CS(=O)C2)c1ccccc1F (stereo unspecified)	-1%
COc1cccc(C(=O)Nc2nc3ccc(Br)cc3s2)c1	12%

Reprinted at random: two entries already listed
SMILES	Mtb growth
Cc1ccc(Cn2c(N3CCN(Cc4ccc(F)cc4)CC3)nc3c2c(=O)[nH]c(=O)n3C)cc1	15%
CCOC(=O)c1nn(-c2ccc(Cl)cc2)c(=O)c2c(NC(=O)c3ccc(OC)c(OC)c3)scc12	12%

Exported as labelled records: part of the list above
> Cc1cccc(NC(=O)/C(C#N)=C/c2ccc(F)cc2)n1
  Mtb growth: -5%
> Cc1cc(NC(=O)c2ccc(F)c(F)c2)nc2c1c(=O)oc1ccccc12
  Mtb growth: -5%

The main list resumes, starting 2 compounds before the break.
SMILES	Mtb growth
O=C(Nc1c2c(nn1-c1ccc(F)cc1)CS(=O)C2)c1ccccc1F (stereo unspecified)	-1%
COc1cccc(C(=O)Nc2nc3ccc(Br)cc3s2)c1	12%
Cc1cccc(-c2nnc(NC(=O)c3ccc(S(=O)(=O)N4CCCCC4)cc3)s2)c1	-2%
COC(=O)c1ccc(CSc2nc3[nH]ncc3c(=O)[nH]2)o1	27%
O=C(CCCS(=O)(=O)c1ccccc1)Nc1nc2ccccc2s1	13%
NC(=O)CSc1nnc(Cn2c(=O)sc3ccccc32)n1-c1cccc(C(F)(F)F)c1	2%
CN(C)c1ccc(/C=C/C(=O)c2cc3ccccc3oc2=O)cc1	9%
CS(=O)(=O)c1ccc2nc(Nc3nc4cc5c(cc4s3)OCCO5)sc2c1	?
Cn1ncc2c(NCCO)nc(N3CCCCC3)nc21	-10%
Cc1ccc2cc(CCNC(=O)CC(C)C)c(=O)[nH]c2c1	4%
OCc1nc2ccccc2n1CCCCOc1ccc(Cl)cc1	7.4µg/mL*
O=C(NCc1cccnc1)c1cccc2c1-c1ccccc1C2=O	-1%
COc1ccc(-c2nsc(SCC(=O)NCc3ccco3)n2)cc1	<0.2µg/mL*
CC(=O)Nc1cccc(NC(=O)C(=O)NCC(c2ccco2)N2CCc3ccccc3C2)c1 (stereo unspecified)	-3%
COc1ccc(OC)c2[nH]c(=O)c(CCNC(=S)Nc3cccc(Cl)c3)cc12	63%
O=C(CSc1nnc2[nH]c(=O)ccn12)N1CCCc2ccccc21	7%
CCc1ccc(NC(=O)c2oc3ccccc3c2NC(=O)C2CCCC2)cc1	-6%
COc1ccc(C(=O)Cn2cnc3c(nnn3-c3ccc(C)c(C)c3)c2=O)cc1	4%
CC(=O)Nc1ccc2nc(NC(=O)/C=C/c3ccccc3)sc2c1	-2%
COc1ccc(Cl)cc1C(=O)Nc1cc(=O)n(C)c(=O)n1C	-6%
O=C(CSc1nc2sc3c(c2c(=O)[nH]1)CCCC3)NCc1ccccc1	2%
Cc1ccc(C(=O)CSc2[nH]c(=O)ncc2C)cc1	-1%
CCOC(=O)c1nn(-c2ccc(Cl)cc2)c(=O)c2c(NC(=O)c3ccco3)scc12	-1%
CSc1nnc(CNC(=O)c2cccc(F)c2)n1-c1cccc(Cl)c1	10%
Cc1ccc(C)c(-c2nnc(NC(=O)c3ccc4c(c3)CCCC4)o2)c1	66%
Cc1ccc(C)c(CSC2=NCCN2C(=O)c2ccc(S(=O)(=O)N(C)C)cc2)c1	-4%
O=C(COc1ccc(Cl)cc1)Nc1nc2c(s1)CCc1ccccc1-2	10%
O=C(Cc1ccccc1)Nn1cnc2c(cnn2-c2ccccc2)c1=O	9%
Cc1cc(=O)[nH]c2ccc(S(=O)(=O)NCc3ccco3)cc12	-5%
CC1CCN(c2nc3c(c(=O)[nH]c(=O)n3C)n2CCSc2ncccn2)CC1	-1%
Cc1ccc(NC(=O)Cn2cnc3c(cnn3-c3ccc(F)cc3)c2=O)c(C)c1	-1%
O=C(CSc1nc2c([nH]c3ccccc32)c(=O)n1-c1ccc([N+](=O)[O-])cc1)N1CCCc2ccccc21	64%
Cc1c(C(=O)O)sc2nc(SCC(=O)NCc3ccccc3)[nH]c(=O)c12	-17%
O=C(Nc1ccc2c(c1)OCCO2)c1oc2ccccc2c1NC(=O)c1cccc2ccccc12	11%
CCOc1ccccc1NC(=O)c1oc2ccccc2c1NC(=O)C1CCCC1	-6%
O=C(Nc1nnc(-c2ccc3c(c2)OCCO3)o1)c1ccccc1Br	13µg/mL*
CCOC(=O)c1nn(-c2ccc(C(F)(F)F)cc2)c(=O)c2c(NC(=O)c3ccc(F)cc3)scc12	4%
O=C(CSc1ccc2nnc(-c3cccc(F)c3)n2n1)Nc1ccccc1C(F)(F)F	1%
CCCCCOC(=O)CSc1nc2c(c(=O)[nH]c(=O)n2C)n1CCc1ccccc1	3%
Cc1cccc(NS(=O)(=O)c2cc3c4c(c2)CCN4C(=O)CC3)c1C	0%
C=CCn1c(SCCN2CCCCC2)nc2c1c(=O)[nH]c(=O)n2C	1%
CC(C)CCn1c(SCc2ccccc2)nc2c1c(=O)n(C)c(=O)n2C	78%
CCCCC(=O)Nc1nnc(-c2ccc(Cl)s2)o1	3.2µg/mL*
O=C(NCCS(=O)(=O)N1CCCCC1)c1ccccc1	-4%
C=C(C)CSc1nc2c(c(=O)[nH]c(=O)n2C)n1CCCCCCCC	18%
NC(=O)c1c(NC(=O)Cc2cccc3ccccc23)sc2c1CCCCC2	5%
CC(=O)c1sc(NC(=O)c2cccc(N3C(=O)CCC3=O)c2)nc1C	-15%
C=CCn1c(=NC(=O)c2cccc(N3C(=O)CCC3=O)c2)sc2c3ccccc3ccc21	9%
COc1ccc(C(=O)CSc2nc(N)c(NC(=O)c3ccc(F)c(F)c3)c(=O)[nH]2)cc1	-10%
c1ccc(Cc2nnc3sc(C4COc5ccccc5O4)nn23)cc1 (stereo unspecified)	5%
COC(=O)c1ccc2c(=O)[nH]c3c(C(=O)N4CCOCC4)sc(=S)n3c2c1	-8%
Cn1c(SCc2ccccn2)ncc(C(=O)Nc2ccc(F)cc2)c1=O	-1%
O=C(/C=C/c1ccccc1Cl)Nc1ccc(S(=O)(=O)Nc2nccs2)cc1	71%

A draw from above in order of heavy-atom count, lowest first:
SMILES	Mtb growth
CCCCC(=O)Nc1nnc(-c2ccc(Cl)s2)o1	3.2µg/mL*
C=CCn1c(SCCN2CCCCC2)nc2c1c(=O)[nH]c(=O)n2C	1%
Cc1cccc(NS(=O)(=O)c2cc3c4c(c2)CCN4C(=O)CC3)c1C	0%
Cn1c(SCc2ccccn2)ncc(C(=O)Nc2ccc(F)cc2)c1=O	-1%
CCCCCOC(=O)CSc1nc2c(c(=O)[nH]c(=O)n2C)n1CCc1ccccc1	3%
C=CCn1c(=NC(=O)c2cccc(N3C(=O)CCC3=O)c2)sc2c3ccccc3ccc21	9%

Screening data from PubChem.
